Choline anaer gr – growth inhibitors of anaerobic choline-fed gram-negatives, minimal medium, absorbance; 55,000 tested, 0.2% active; calls only; Gram-negative bacterium anaerobic choline minimal medium; stronger effect = lower value; many inactives read as strong as hits in the columns shown;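 active = growth z-score on choline under -2 at 7 or 20 h with little or no fall on glycerol, limits in tiers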;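 also: stock transfer was 300 nL into about 50 µL; the organism is E. coli; final concentration not given here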
Choline anaer gr early – recorded beside Choline anaer gr, whose call it bears; z-score; measured here: choline growth z-score, timepoint 1;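 score of optical density at 7 h as mean of two plates; lower means less growth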
Starred values were filed as active, the others as inactive; i = inactive; & = joins results of further samples. Not all compounds are listed (hit frequency here may not be typical).

SMILES | Choline anaer gr | Choline anaer gr early
Cc1cc(N2CCN(C)CC2)nc2ccc(NC(=O)NCC3CCCO3)cc12 (configuration not stated) | i | -0.17
COc1ccc(/C=C\c2onc(C)c2S(=O)(=O)N2CCC(C(=O)N3CCc4ccccc43)CC2)cc1 | i | 0.43
COc1ccc(CNC(=O)c2ccc3cnn(Cc4ccc(Cl)cc4)c3c2)cc1 | i | 0.09
O=C(Nc1ccc(CN2CCOCC2)cc1)C1(c2ccccc2)CCCC1 | i | -0.29
CC(C)c1csc(NC(=O)COc2ccccc2-c2nc(-c3ccccc3)no2)n1 | i | 0.45
CCOC(=O)c1ccccc1NC(=O)CSc1nc2c(c(=O)n1CC)SCC2 | i | 0.25
CCCn1c(=O)[nH]c2c(C(=O)N3CCCC(C)C3)snc2c1=O (configuration not stated) | i | 1.9
Cn1c(=O)c(-c2noc(CCC(=O)Nc3ccc(Cl)cc3)n2)nn(-c2ccc(F)cc2)c1=O | i | 0.52
Cc1cc(C)nc(NC(c2ccsc2)c2c(NC(=O)c3ccccc3)sc(C)c2C)n1 (configuration not stated) | i | 1.3
COC(=O)c1cc(NC(=O)CC2Oc3ccccc3NC2=O)cc(C(=O)OC)c1 (configuration not stated) | i | -1.2
COc1ccc(-c2csc(C)n2)cc1S(=O)(=O)N1CCCCC1C (configuration not stated) | i | 1.2
O=S(=O)(c1cc(-c2cc(C(F)(F)F)on2)cs1)N1CCN(c2ccc(Cl)cc2)CC1 | i | 0.66
Cc1cccc(Nc2nc(C)c3ncn(-c4cccc(C)c4)c3n2)c1 | i | -0.08
CCNC(=O)N1CCC(OC)CC1 | i | -0.59
O=C(NCC1CCCO1)c1ccc(N2CCNCC2)c(NS(=O)(=O)c2ccc(Cl)cc2)c1 (configuration not stated) | i | -0.5
Cc1ccc(S(=O)(=O)NC2CCN(c3ncnc4c3CCC4)C2)cc1 (configuration not stated) | i | 0.29
CCN(CC)c1ncc(C(=O)O)cc1NS(=O)(=O)c1ccc(Br)cc1 | i | -1.7
CCc1ccc2c(c1)C(O)(c1c(C)[nH]c3ccccc13)C(=O)N2 (configuration not stated) | i | -3.5
CN(C(=O)C1CCN(c2ccc(-c3cccc(F)c3)nn2)CC1)C1CCCCC1 | i | 0.11
CC(C)Cn1cc(NC(=O)NCCCN(C)c2ccccc2)c2ccccc2c1=O | i | -0.97
Cc1nn(-c2ccccc2)c(C)c1CN1CCC2(CC1)OCCO2 | i | -0.73
CCCN(Cc1ccc(C(C)C)cc1)Cc1cc(=O)n2ccsc2n1 | i | -2.6
Cc1ccc(S(=O)(=O)c2c(C)cc(C)n(CC(=O)NC3CCCCC3)c2=O)cc1 | i | 0.81
CC1(C)C(=O)N(CC(=O)N2CCCC2)c2ccc(S(=O)(=O)N3CCCCC3)cc21 | i | -0.65
Cc1c(N)c(=O)n(-c2ccccc2)n1C | i | -0.96

Next section.
SMILES | Choline anaer gr | Choline anaer gr early
COc1ccc(Cc2nnc3sc(-c4cccc(OC)c4)nn23)cc1 | i | 0.78
COc1ccc(OC)c(S(=O)(=O)N2CSC[C@@H]2C(=O)NCc2csc(C)n2)c1 | i | 0.51
CC(=O)Nc1ccc(Cc2nc(-c3ccc(NS(C)(=O)=O)cc3)no2)cc1 | i | 0.67
C[C@]12C=CC(=O)C=C1CC[C@H]1[C@@H]3C[C@@H](O)[C@](O)(C(=O)CO)[C@@]3(C)C[C@H](O)[C@@]12F | i | 0.76&0.9&0.48
CCCCS(=O)(=O)Nc1ccc2nc(SCC)sc2c1 | i | -1.2
COc1ccc(N2C(=O)CCS2(=O)=O)cc1S(=O)(=O)N1CCCC1 | i | -1.3
Cc1ccc(NC(=O)Cn2c(=O)n(Cc3nc(C)no3)c(=O)c3cc4c(cc32)OCO4)c(C)c1 | i | -0.86
CCCCOc1ccc(-c2cc3c(N4CCC(C(=O)N5CCN(c6ccccc6OC)CC5)CC4)nccn3n2)cc1 | i | 1.2
CCOC(=O)c1c(NC(=O)c2ccc(S(=O)(=O)N(C)C)cc2)sc2c1CCN(Cc1ccccc1)C2 | i | -0.35
COc1cc(OC)cc(C(=O)NCCn2c(-c3ccccc3)nc3cccnc32)c1 | i | -0.57
Cc1cccc(N2CCN(C(=O)c3[nH]c(C)c(S(=O)(=O)N4CCOCC4)c3C)CC2C)c1 (configuration not stated) | i | -0.86
CN(C)c1ccc(NC(=O)c2nc(-c3ccccc3)n(-c3ccccc3)n2)cc1 | i | 0.86
Cc1ccsc1C(=O)N1CCc2c(c(-c3nc(C4CC4)no3)nn2C)C1 | i | -1.8
Cc1ccsc1C(=O)N1CCN(S(=O)(=O)c2ccc3c(c2)NC(=O)CO3)CC1 | i | 0
CC(O)[C@@H]1C(=O)N2C(C(=O)O)=C(SC3CNC(CNS(N)(=O)=O)C3)C(C)[C@@H]12 (some centres not stated) | i | -3.2
CCCCCCCC(=O)CC[C@@H]1[C@@H](C/C=C\CCCC(=O)O)[C@@H](O)C[C@H]1O | i | -0.11
COc1ccc(NC(C)=O)cc1CN1CCn2c(nc3ccccc32)C1 | i | -0.11
CCn1cc(-c2nc(-c3ccc(Cl)cc3)no2)c(=O)c2cc(F)c(N3CCOCC3)cc21 | i | -0.12
CCOc1ccc(-n2nnnc2CNC(=O)NCc2ccc(Cl)cc2)cc1 | i | 0.32
CN1C(=O)c2ccccc2Sc2cc(-c3noc(CN4C(=O)COc5ccccc54)n3)ccc21 | i | 0.34
Cc1cc(Cl)ccc1NC(=O)C1=CSCCO1 | i | -0.02
COc1cc(S(=O)(=O)NCCc2c[nH]c3ccccc23)ccc1-n1cnnn1 | i | -0.67
COc1ccc(N2C(=O)c3c(C)nc4ccccc4c3C2=O)c(OC)c1 | i | 0.15
Cn1c(SCc2ccc(Br)cc2F)nc2c(=O)[nH]cnc21 | i | -0.2
COc1ccc(-n2nc(C(=O)N3CCN(c4ccccn4)CC3)c(=O)n(C)c2=O)cc1 | i | 0.35

Full records as entered above.
Cc1cc(C)nc(NC(c2ccsc2)c2c(NC(=O)c3ccccc3)sc(C)c2C)n1 (configuration not stated) is listed as Choline anaer gr = i; Choline anaer gr early = 1.3
COc1ccc(Cc2nnc3sc(-c4cccc(OC)c4)nn23)cc1 is listed as Choline anaer gr = i; Choline anaer gr early = 0.78
CN(C)c1ccc(NC(=O)c2nc(-c3ccccc3)n(-c3ccccc3)n2)cc1 is listed as Choline anaer gr = i; Choline anaer gr early = 0.86

Other records.
SMILES | Choline anaer gr | Choline anaer gr early
O=C(Nc1nccs1)c1c(-c2ccccc2)c(-c2ccccc2)n[nH]c1=O | i | 1.4
COc1cccc(CNC(=O)c2ccc3noc(-c4ccc(Cl)cc4)c3c2)c1 | i | 1.6
CCOc1ccccc1N1CCN(C(=O)CSc2nccnc2Oc2ccc(C)cc2)CC1 | i | -0.21
COc1ccc(N2CCN(S(=O)(=O)c3ccsc3C(=O)n3nc(C)cc3C)CC2)cc1 | i | -1.3
CCOc1ccc(-c2cc3n(n2)CCCN(S(=O)(=O)c2cnn(CC)c2)C3)cc1 | i | 0.32
O=C(COc1ccc(Cl)cc1)Nc1noc(-c2ccccc2)n1 | i | 0.01
CCC(CC)C(=O)n1c(=O)oc2ccc(C)cc21 | i | -0.73
O=C(CCN(CC1CCCO1)C(=O)c1ccc(F)cc1)N1CCNCC1 (configuration not stated) | i | -0.87
Cn1nc(COCc2ccccc2)c2c1CCN(S(=O)(=O)c1cccc(C(F)(F)F)c1)C2 | i | -0.45
Cc1ccccc1-c1cc2nccc(-c3cc(Cl)ccc3O)n2n1 | i | -0.98
COc1cc(=O)n(-c2ccc(C)cc2)nc1C(=O)Nc1cc(Cl)ccc1O | i | 0.25
COc1ccccc1N1C(=O)N(c2ccc(Cl)cc2)C2CS(=O)(=O)CC21 (configuration not stated) | i | -0.43
CC(C)NC(=O)N1CCCC(c2cccc(C(=O)N(C)C)c2)C1 (configuration not stated) | i | 0.13
O=C(Nc1nc2ccccc2s1)c1cncc(NS(=O)(=O)c2ccc(Cl)cc2)c1 | i | 1.3
O=S(=O)(NC1CC1)c1cc(-c2nc(-c3cccc(F)c3)no2)cs1 | i | 0.69
Cc1nc(N(C)C)cc(N2CCN(C(=O)C3CCCCC3)CC2)n1 | i | 0.6
Clc1ccc(-c2noc(CCCCc3nc4ccccc4[nH]3)n2)cc1 | i | -1.3
Cn1nc(C(=O)Nc2ccc(Br)cc2)c(Cl)c1C(F)(F)F | i | 0.31
O=C1CCS(=O)(=O)N1c1ccc(S(=O)(=O)Nc2ccc(Br)cc2)cc1 | i | -0.04
CC(C)CCNC(=O)Nc1ccc2c(c1)N(Cc1ccccc1)C(=O)c1ccccc1S2 | i | 1.1
O=C(CC(=O)Nc1ccccc1F)Nc1ccc2nc3n(c(=O)c2c1)CCCCC3 | i | 1.1
Cc1ccc(Oc2nccnc2N2CCCC(C(=O)Nc3ccc(Br)c(C)c3)C2)cc1 (configuration not stated) | i | 1.6
CCCOc1ccc(CN2CCCC2c2c(C)noc2C)cc1 (configuration not stated) | i | -1.5
OC(CN1CCN(c2ccccc2)CC1)c1c[nH]c2ccc(F)cc12 (configuration not stated) | i | 0.07
O=C(CN1N=C(c2ccccc2F)c2cc(Cl)ccc2S1(=O)=O)NCc1ccccc1 | i | 1.7

Next part
SMILES | Choline anaer gr | Choline anaer gr early
O=C1CC(N2CCN(Cc3ccc4c(c3)OCO4)CC2)C(=O)N1c1ccccc1 (configuration not stated) | i | -1.4
O=C(NCCC1=CCCCC1)c1ccc(Oc2ccnc(-c3ccc(F)cc3)n2)cc1 | i | 0.09
CC(C)c1nnc2sc(-c3c[nH]c4ccccc34)nn12 | i | -0.26
CCn1c(=O)c(-c2noc(C(=O)N3CCN(c4ccccc4)CC3)n2)nn(-c2ccccc2)c1=O | i | 0.71
CCn1c(=O)c2sccc2n2c(CCC(=O)N3CCN(C4CCCCC4)CC3)nnc12 | i | -0.17
COc1ccc(NC(=O)CS(=O)(=O)c2ccc3c(c2)n(C)c(=O)n3C)cc1 | i | 0.27
COc1ccc(-n2ncc3c2CC(c2ccc(F)cc2)CC3=O)cc1 (configuration not stated) | i | -0.02
O=S(=O)(c1cc(-c2nnc(C3CCC3)o2)co1)N1CCN(c2ccc(F)cc2)CC1 | i | -0.17
CC(C)CN1CCN(S(=O)(=O)c2cc(-c3nnc(C4CCCC4)o3)co2)CC1 | i | 0.95
Cc1ccc(-c2nccc(N3CCC(C(=O)NC4CCCc5ccccc54)CC3)n2)cc1 (configuration not stated) | i | 0.6
CCn1c(SC)nnc1-c1nn(C)c2c1CN(C(=O)C1CC1)CC2 | i | 0.37
O=C1COc2ccc(S(=O)(=O)Nc3ccc(F)c(F)c3)cc2N1Cc1noc(C2CCC2)n1 | i | 0.18
CCOc1ccccc1CN1CCCC1c1c(C)noc1CC (configuration not stated) | i | -0.39
Cc1c(C(=O)NCC(c2cccs2)N2CCCC2)oc2ccc(Br)cc12 (configuration not stated) | i | -0.36
CCOc1c(C)cnc2c1c(=O)n(CC(=O)Nc1ccc3c(c1)OCO3)c(=O)n2C | i | 1.1
CCc1ccc(Oc2cc(N3CCC(C(=O)Nc4ccc(C)c(C)c4)CC3)ncn2)cc1 | i | 1.6
CCc1c(Cl)c(O)c(Cl)c(O)c1C(=O)OC1C(C)OC(OCC2=CC=CCC(O)C(C)=CC(CC)C(O[C@@H]3OC(C)(C)C(OC(=O)C(C)C)C(O)C3O)C(C)=CC(C)=CC[C@H](C(C)O)OC2=O)C(OC)C1O (some centres not stated) | i | 0.48
C=C1CCC(O)CC1=CC=C1CCC[C@@]2(C)[C@H]1CC[C@H]2C(C)CCCC(C)(C)O (some centres not stated) | i | 0.26
Cn1c(SCc2nc(-c3ccc4c(c3)OCO4)no2)nc2ccsc2c1=O | i | 1.5
CCc1ccc2nc(NC(=O)c3sc(COc4cccc(C)c4)nc3C)sc2c1 | i | 0.1
Cc1nc(-c2ccc(C)c(-n3cc(C(=O)Nc4cc(Cl)ccc4C)c(C)n3)c2)no1 | i | 0.9
O=C(Nc1ccc(Br)cc1F)C1CCN(S(=O)(=O)Cc2ccccc2)CC1 | i | -0.35
CC(C)CC(=O)Nc1ccc2c(c1)nc1n2CCN(C(C)C)C1 | i | -1.3
Cc1cccc(-c2cc(N3CCN(C(=O)COc4ccc(Cl)cc4)CC3)ncn2)c1 | i | 1.3
Cc1cccc(Cn2ccn(-c3ccccc3)c(=O)c2=O)c1 | i | -1.4
CN(C)c1nc(Nc2cccc(Cl)c2)c2cnn(-c3ccccc3)c2n1 | i | 0.33
Cc1ccc(CNc2c3c(nc4nc(C)nn24)CCC3)cc1 | i | 0.95
CCCc1cc(=O)[nH]c(-n2nc(C)cc2NC(=O)c2cc(OC)cc(OC)c2)n1 | i | 0.73
Cc1cccc(CC(=O)NCCc2nc(-c3ccccc3)n[nH]2)c1 | i | 0.65
COc1ccc(N2C=NS(=O)(=O)c3cccnc32)cc1OC | i | 0.79

A different layout for part of the listing above.
| SMILES | Choline anaer gr | Choline anaer gr early |
| --- | --- | --- |
| COc1ccc(CNC(=O)c2ccc3cnn(Cc4ccc(Cl)cc4)c3c2)cc1 | i | 0.09 |
| O=C(Nc1ccc(CN2CCOCC2)cc1)C1(c2ccccc2)CCCC1 | i | -0.29 |
| CC(C)c1csc(NC(=O)COc2ccccc2-c2nc(-c3ccccc3)no2)n1 | i | 0.45 |
| CCOC(=O)c1ccccc1NC(=O)CSc1nc2c(c(=O)n1CC)SCC2 | i | 0.25 |
| CCCn1c(=O)[nH]c2c(C(=O)N3CCCC(C)C3)snc2c1=O (configuration not stated) | i | 1.9 |

Compound activity deposited in PubChem by ICCB-Longwood Screening Facility, Harvard Medical School.
